BJeLR lethal = BJeLR cell viability loss. BJeLR (HRASV12) viability, CellTiter-Glo ATP luminescence, 48 h; reference of the scale not given here. inhibition, % (test concentration not listed). actives 0.17% (n = 300,000). AID 1554;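 active = replicate mean above 50%; inconclusive = above 50% but judged a plate artefact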;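 also: 50 nL library stock added to about 25 µL; numbers are from one replicate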
Mtb hypoxia inh = reduces hypoxia-regulated biosensor signal in M. tuberculosis; fluorescence inhibition, % (concentration not given with the values); actives 0.1% (n = 300,000); M. tuberculosis hypoxia-regulated fluorescent reporter, fluorescence; AID 1159583;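 active = 35 to 45% if threefold the growth effect, above 45% if 1.5-fold the growth effect; inactive = the rest, general growth blockers included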;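 also: wells of about 50 µL received 100 nL stock; 0% = vehicle wells and 100% = reference inhibitor wells; whole bacteria with a GFP reporter of the hypoxia response; strong numbers were not always called active; many hits fall short of the cut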
PrP 5UTR inh = suppresses PrP 5' UTR mRNA reporter expression | cell-based PrP 5' UTR mRNA reporter, plate reader | inhibition, % (concentration not given with the values) | actives 0.35% (n = 340,000);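 active = every replicate at 50% or more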;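 also: 0 = median of the neutral control wells; tested in H4 reporter cells; numbers are from one replicate; inactives centre near -14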
ugtP null kill = kills S. aureus RN4220 lacking UgtP; S. aureus RN4220 ugtP deletion, OD600 growth, 16 h; some inactives read as strong as hits; growth inhibition, % (test concentration not listed); actives 0.54% (n = 330,000); AID 1259309;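 active = z-score under -3 and OD600 up to 0.15 on both plates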;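 also: plate controls were untreated wells for no effect and antibiotic for full effect; wells of about 80 µL received 100 nL stock; the first replicate is given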
Sa RN4220 lethal = S. aureus RN4220 growth inhibition | OD600, 16 h | inhibition, % (no concentration beside the values) | actives 0.33% (n = 330,000) | AID 1259311;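 active = z-score of -3 or lower and OD600 up to 0.18 on both plates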;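 also: plate controls were untreated cells for no effect and reference antibiotic for full effect; stock transfer was 100 nL into about 80 µL; one replicate is shown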
Bead autofluor = flagged as autofluorescent in microsphere protease counterscreen. compound autofluorescence counterscreen, microsphere flow cytometry; hits give high values. fluorescence intensity (concentration not given with the values). actives 3.1% (n = 360,000). AID 624483;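 active = at least 3 SD above the mean of all compounds, about 16000 in these data; inconclusive = too few beads counted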;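 also: 100 nL of 1 mM stock went into each well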
Mtb hypoxia inh growth = second read-out of Mtb hypoxia inh, no call of its own (marks repeat the call); growth inhibition, %; measured here: M. tuberculosis growth (absorbance);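 0% = vehicle and 100% = reference antibiotic; read after six days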
An asterisk follows results filed as active; ? = inconclusive; · = not tested or not shown; & = joins results of further samples.

SMILES	BJeLR lethal	Mtb hypoxia inh	Mtb hypoxia inh growth	PrP 5UTR inh	ugtP null kill	Sa RN4220 lethal	Bead autofluor
CCOC(=O)c1cnn(-c2ccc(C(F)(F)F)cn2)c1N	-4	6	2	·	-10	3.7	10230
CC(C)COc1ccc(/C(O)=C2/C(=O)C(=O)N(CCN(C)C)C2c2ccncc2)cc1 (stereo not drawn)	0	·	·	-20	·	·	3442
CC1=CC(=NOS(=O)(=O)c2ccccc2)C=CC1=O	·	24	-25	·	0	4.2	·
CCOc1ccc(NC(=O)CCC(=O)Nc2cc(OC)c(NC(=O)c3ccco3)cc2OC)cc1	5	14	10	-17	-2	-2.4	3469
O=C(CN1CCOCC1)Nc1ccc2c(c1)OCO2	-7	-2	-4	-5	4	5.1	2431
Cn1cccc1CC(=O)NN=Cc1cccc([N+](=O)[O-])c1	·	-6	0	·	-12	3.9	·
COc1ccc(-c2[nH]ncc2CN2CCCC(C(=O)c3ccc(OC)cc3OC)C2)cc1 (stereo not drawn)	2	6	11	-9	-1	-0.6	2042
CC(CCc1ccccc1)NC(=O)Cc1ccc([N+](=O)[O-])cc1 (stereo not drawn)	3	-1	0	-6	-2	0.3	2679
COc1ccccc1C1C([N+](=O)[O-])=CC([N+](=O)[O-])=CN1C (stereo not drawn)	1	·	·	-18	16	31	2740
Cc1n[nH]c(C)c1CN(C)C(=O)C1CCC(=O)N(CCc2cccc(F)c2)C1 (stereo not drawn)	16	1	-6	9	-1	-1.3	4299
CC(C)CC(=O)Nc1ccnn1C1CCN(C(=O)c2ccc(F)cc2Cl)CC1	-3	-6	1	-39	-7	-3.4	6338
O=C(NN=Cc1ccccn1)c1cccc(C(=O)NN=Cc2ccccn2)n1	·	5	0	·	4	1.4	·
CC(O)[C@H]1CNC(=O)C(=O)N1CCc1cccc2ccccc12 (stereo partly drawn)	1	·	·	-13	·	·	3501
Cc1noc(C)c1C(=O)NCC(=O)Nc1ccccc1Br	·	8	5	-4	4	6.4	2756
COc1cccc(NC(=O)CN(C)C(=O)CN2C(=O)NC(C)(c3ccc4ccccc4c3)C2=O)c1 (stereo not drawn)	3	9	-1	-12	-3	2.0	?
CCOc1ccccc1C1NC(=O)CCC1[N+](=O)[O-] (stereo not drawn)	1	12	-4	-14	2	7.5	4035
COc1ccc(CCNC(=O)c2c[nH]c3ccc(F)cc3c2=O)cc1OC	-2	7	22	-5	-2	0.3	3716
CC(CCc1ccccc1)NC(=O)c1nnc(Cc2ccc(F)cc2)o1 (stereo not drawn)	-10	-1	-3	-4	5	-1.8	5659
CCN1CCN(C(=O)/C=C/c2cccc(Cl)c2)CC1	-6	11	7	-31	3	0.2	5677
O=C(NC1CCCC1)C(c1ccccn1)N(C(=O)c1csnn1)c1ccccc1 (stereo not drawn)	-5	3	1	-27	8	-1.0	3810
CC1CCN(S(=O)(=O)c2ccc(C(=O)Nc3sccc3C(N)=O)cc2)CC1	10	-3	15	-40	12	3.0	5456
Clc1ccc(OCCCc2nc(-c3cccnc3)no2)c(Cl)c1	6	5	6	-14	5	7.0	21481*
CC(C)C(=O)NC(=S)Nc1ccc(S(=O)(=O)N2CCCC2)cc1	-15	-5	3	-27	5	-2.8	2538
CC(Nc1nc(C(F)(F)F)nc2ccccc12)c1cccs1 (stereo not drawn)	5	-5	-5	-18	-45	-16	3952
CCOC(=O)CN1C(=O)/C(=C2\SC(=S)N(NC(=O)c3cccnc3)C2=O)c2ccccc21	-6	11	7	-3	8	5.5	·
Clc1cccc(CNCC2CCCO2)c1Cl (stereo not drawn)	-9	0	18	-13	6	1.4	3340
COC(=O)c1[nH]c2c(c1C)C(=O)CC(c1cc(OC)ccc1OC)C2 (stereo not drawn)	16	·	·	-16	-3	-0.6	5185
Cc1ccccc1CS(=O)(=O)Cc1ccc(C(=O)NCc2cccnc2)o1	-10	0	9	11	-3	2.9	·
COc1ccc(-c2cc(C(F)(F)F)nc(SCC(=O)NCc3ccco3)n2)cc1OC	-2	5	4	-56	2	0.9	2500
COc1ccc(CCC(=O)Nc2cc(S(C)(=O)=O)ccc2Cl)cc1	3	14	2	-1	-73	0.9	4162
COC(=O)[C@]1(C)NC(c2ccc(-c3ccc(Cl)c(Cl)c3)c(OC)c2)C2C(=O)N(C)C(=O)C21 (stereo partly drawn)	·	8	9	·	-8	-7.1	·
Cc1ccc(C(=O)NCc2ccc3c(c2)OCO3)cc1S(=O)(=O)N1CCOCC1	2	12	2	1	8	-0.1	4270
CN(C)/C=C/C(=O)c1c(F)cccc1F	-3	3	9	-11	6	4.6	4321
COc1cccc(NC(=O)Nc2ccc(C)c(Cl)c2)c1	14	-9	0	-30	-2	-3.8	2158
O=C(NCCCOC(=O)c1ccccc1)c1ccccc1	·	8	9	-18	2	3.1	3646
C=CCCC(Cc1ccc(F)cc1)C(=O)OCC(NC(=O)C(CC=C)CC(=O)NCCO)C(C)(C)C (stereo not drawn)	·	10&2	8&7	·	0&1	8.8&1.9	·
c1ccc(COc2cccc(CNCc3cccnc3)c2)cc1	11	1	3	-16	14	4.5	4931
CC1(C)Cc2c(c(N3CCOCC3)nc3sc(C(=O)N4CCCCC4)c(N)c23)CO1	-6	13	8	-4	14	2.9	5860
CNc1nc(-c2ccc(Cl)cc2)cs1	-3	5	3	-73	16	3.9	3184
COCCn1c(C(F)(F)F)ccc(NC(=O)c2ccccc2)c1=O	4	4	-11	-57	-3	-2.7	3918
CC(C(=O)N1CCOCC1)c1ccc([N+](=O)[O-])cc1 (stereo not drawn)	10	8	-2	-11	7	3.5	2085
Cc1ccc(C(=O)/C=C/c2ccccc2)o1	-17	13	18	-8	-9	5.5	4528
Cc1ccc(Cl)cc1N=C(N)N=C(N)N	0	-18	-8	-14	7	11	3182
Cn1nnnc1SCc1nnc(-c2ccc(F)cc2)o1	-6	·	·	-40	-2	1.3	2677
O=C(Nc1cc(C(F)(F)F)ccc1N1CCOCC1)C1=COCCO1	4	4	0	-7	3	2.6	4740
O=C1C2CSCN2C(=O)CN1CCCN1CCN(C(c2ccccc2)c2ccccc2)CC1 (stereo not drawn)	-4	-5	2	-33	4	-2.4	2335
C=CCSc1nsc(N)n1	0	-5	-2	-14	-7	-1.6	4785
O=C(NCC1CCCO1)c1onc(CSc2ccc(Cl)cc2)c1C(=O)O (stereo not drawn)	2	-1	1	-11	-3	13	3998

Two entries picked at random from the list so far, as already listed:
SMILES	BJeLR lethal	Mtb hypoxia inh	Mtb hypoxia inh growth	PrP 5UTR inh	ugtP null kill	Sa RN4220 lethal	Bead autofluor
O=C(NCC1CCCO1)c1onc(CSc2ccc(Cl)cc2)c1C(=O)O (stereo not drawn)	2	-1	1	-11	-3	13	3998
Cc1ccc(Cl)cc1N=C(N)N=C(N)N	0	-18	-8	-14	7	11	3182

Following part:
SMILES	BJeLR lethal	Mtb hypoxia inh	Mtb hypoxia inh growth	PrP 5UTR inh	ugtP null kill	Sa RN4220 lethal	Bead autofluor
CCC(C)c1ccc(OCC(=O)Nc2cccc(C(=O)Nc3ccc(C(=O)O)cc3)c2)cc1 (stereo not drawn)	-1	-19	-6	-9	-2	5.2	5833
CCOc1ccc(NC(=O)CN(c2cc(C)cc(C)c2)S(=O)(=O)c2c(C)noc2C)cc1	-1	·	·	16	12	6.6	4057
Cc1ccc([N+](=O)[O-])cc1S(=O)(=O)NCC1COc2ccccc2O1 (stereo not drawn)	-2	·	·	-17	·	·	5579
COc1ccc(NC(=O)c2ccco2)cc1S(=O)(=O)N1CCOCC1	-6	2	9	-16	3	2.7	2056
COc1ccc(C(CC(=O)O)NC(=O)COc2ccccc2)cc1 (stereo not drawn)	-6	·	·	-26	2	-2.0	4925
CCc1nc(SCc2nc3ccccc3[nH]2)c2oc3ccccc3c2n1	-7	7	11	-22	8	11	17511*
Cc1cccc(-c2c(NC(=O)c3ccco3)oc3ccc(Cl)cc3c2=O)c1	5	-15	-13	-11	-18	-5.9	4001
CC(=O)c1ccc(NC(=O)COC(=O)C2CC3C=CC2C3)cc1 (stereo not drawn)	·	8	0	-35	5	3.4	2986
COCCN(C(=O)c1ccco1)c1nc(-c2ccccc2)cs1	8	16	14	-18	82	4.0	3705
Cc1cc(C)c(C(=O)CSc2n[nH]c(-c3ccncc3)n2)c(C)c1	-5	-12	12	-24	-1	3.1	2145
Nn1c(SCC(=O)Nc2cccc(F)c2)nnc1C1CCCCC1	·	0	5	-9	1	9.7	22029*
CC(C)OC(=O)C(C)Nc1n[nH]c(=S)[nH]c1=O (stereo not drawn)	-3	9	-3	-12	14	3.6	4646
Cc1ccc2c(c1)C1C(CO2)C(c2ccccc2)[C@]2(C)C(=O)N(Cc3ccco3)CC(=O)N12 (stereo partly drawn)	·	5	10	·	0	4.4	·
CCOc1ccc(NC(=S)N2CCN(S(=O)(=O)c3ccc(OC)cc3)CC2)cc1	-3	9	7	-14	10	-5.1	5431
Cc1cc(C)n(-c2nc(O)cc(=O)[nH]2)n1	6	·	·	-44	10	5.0	4342
COc1cnc(-c2ccccn2)nc1Oc1ccccc1Cl	-4	5	-3	-4	-2	2.7	9641
COC(=O)c1ccccc1NC(=O)CSc1ccccc1	-11	0	1	-7	-7	2.6	4169
Cc1ccc(C(=O)NCc2ccccc2)c(F)c1F	4	·	·	-23	17	9.1	4582
CC(C)(C)n1nnnc1C(c1cccs1)N1CCN(c2ccccc2)CC1 (stereo not drawn)	-19	-8	0	-14	3	-0.4	4254
Cc1cccc(-c2nc3c(s2)CCc2onc(-c4ccc(Br)cc4)c2-3)c1	11	5	-1	-4	-7	-28	4664
O=c1[nH][nH]c(=O)c2c1[nH]c(=S)n2Cc1ccccc1	·	4	4	-6	-4	1.6	2979
O=S(=O)(NN=Cc1cccc(F)c1)c1ccccc1	·	8	6	·	-5	30	·
N#Cc1c(N2CCCCC2)nc(N)c2c(N)nc3c(c12)CC(CCl)O3 (stereo not drawn)	4	·	·	-5	·	·	4148
Cc1nc(N2CCN(c3ccc(Cl)cc3)CC2)[nH]c(=O)c1C	-1	3	7	-9	3	3.5	3911

6 entries from above, ordered by SMILES length, low to high.
SMILES	BJeLR lethal	Mtb hypoxia inh	Mtb hypoxia inh growth	PrP 5UTR inh	ugtP null kill	Sa RN4220 lethal	Bead autofluor
Cc1ccc(C(=O)NCc2ccccc2)c(F)c1F	4	·	·	-23	17	9.1	4582
O=S(=O)(NN=Cc1cccc(F)c1)c1ccccc1	·	8	6	·	-5	30	·
Cc1nc(N2CCN(c3ccc(Cl)cc3)CC2)[nH]c(=O)c1C	-1	3	7	-9	3	3.5	3911
CC(C)(C)n1nnnc1C(c1cccs1)N1CCN(c2ccccc2)CC1 (stereo not drawn)	-19	-8	0	-14	3	-0.4	4254
N#Cc1c(N2CCCCC2)nc(N)c2c(N)nc3c(c12)CC(CCl)O3 (stereo not drawn)	4	·	·	-5	·	·	4148
Cc1cccc(-c2nc3c(s2)CCc2onc(-c4ccc(Br)cc4)c2-3)c1	11	5	-1	-4	-7	-28	4664

Next records follow.
SMILES	BJeLR lethal	Mtb hypoxia inh	Mtb hypoxia inh growth	PrP 5UTR inh	ugtP null kill	Sa RN4220 lethal	Bead autofluor
O=C1Nc2ccc(F)cc2C12Nc1ccccc1-c1nnc(SCc3ccccc3Cl)nc1O2 (stereo not drawn)	-12	10	9	-29	-8	-8.1	2927
CC/C(=N\NC(=O)c1ccccc1Cl)c1ccc(Br)s1	2	·	·	-37	·	·	8373
CCOC(=O)c1[nH]c(C)c(C(=O)N2CCCC(Nc3ccc(C)c(C)c3)C2)c1C (stereo not drawn)	8	-8	1	-8	0	1.0	6318
CC12CN3CC(C)(CN(C1)C3c1ccc(Cl)cc1Cl)C2O (stereo not drawn)	7	2	3	-36	13	4.2	8851
O=C(O)c1cc(NC(=O)c2ccc3c(c2)C(=O)N(Cc2ccccc2)C3=O)cc(C(=O)O)c1	-4	-10	1	-6	3	0.9	5867
CC(C)(C)OC(=O)C(CCCCN)NC(=O)c1nc[nH]c1C(=O)NCCCCCN (stereo not drawn)	·	19	9	·	0	3.8	·
O=C(CN1N=C(c2ccccc2)CCC1=O)NCc1ccccc1	3	1	10	-18	17	1.5	3311
COCCNC(=O)c1cc(-c2ccccc2)nn1Cc1cc(C)no1	·	14	11	5	-1	6.4	4292
CN1CCCN(Cc2cccc3ccccc23)CC1	-8	6	5	-3	4	2.1	3791
O=S(=O)(NCc1ccccn1)c1ccc(Br)s1	-1	13	17	-22	6	8.8	18026*
COC(=O)c1ccc(C2C(C#N)=C(N)Oc3cc(N)ccc32)cc1 (stereo not drawn)	-7	3	-2	-18	1	3.2	4141

High-throughput results deposited in PubChem BioAssay by several laboratories.
